# Screening results from PubChem.
# rRNA inh HTS = selective bacterial rRNA inhibition in E. coli | E. coli WT GFP vs humanized-ribosome RFP mutants, fluorescence, 24 h; active compounds read low; DMSO median 0, no signal -100 | GFP signal change (wild-type ribosome), % (no concentration beside the values) | hit rate 1.6% among 350,000;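 active = significant combined selectivity score with lowered wild-type GFP, culture density cut under 30%, mutant RFP and density less affected; inactive = any of these conditions unmet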; note: one replicate is shown; some compounds called inactive have numbers as strong as hits
# rRNA inh HTS OD600 = second read-out of rRNA inh HTS, no call of its own (marks repeat the call); OD600 change, %; measured here: OD600 growth;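 optical density of the mix in the first replicate; 0 = DMSO median and -100 = no signal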
# rRNA inh HTS RFP = further read-out of rRNA inh HTS, marked with its call; RFP signal change, %; measured here: RFP humanized mutant strains;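 first replicate; 0 = DMSO median and -100 = no signal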
# * hit, by the source's call; i = inactive; nt = not tested or not shown. This is a subset; rates above refer to the full screens.
SMILES,rRNA inh HTS,rRNA inh HTS OD600,rRNA inh HTS RFP
CCCCNC(=O)c1nc(C2CCN(S(=O)(=O)c3ccc(Cl)cc3)CC2)oc1-c1ccccc1,16,12,3.6
COC(=O)C[C@H]1CC[C@H]2[C@H](COc3ccc(NC(=O)Nc4ccc(Cl)cc4)cc3C(=O)N2C)O1,-3,-15,3.5
Cc1cc(C)cc(NC(=O)Nc2ccc3c(c2)C(=O)N(C)[C@@H]2CC[C@H](CC(=O)O)O[C@H]2CO3)c1,-1,6,-1.4
CC(C)NC(=O)Nc1ccc2c(c1)C(=O)N([C@@H](C)CO)C[C@H](C)[C@@H](CN(C)Cc1ccc3c(c1)OCO3)OCCCC[C@H](C)O2,3,8,0.5
C[C@@H]1CCCCO[C@H](CN(C)Cc2ccc3c(c2)OCO3)[C@@H](C)CN([C@@H](C)CO)C(=O)c2cc(NS(=O)(=O)c3cccs3)ccc2O1,5,-3,3.2
C[C@@H]1CN([C@@H](C)CO)C(=O)c2cc(-c3cccc(F)c3)cnc2O[C@@H]1CN(C)Cc1cccc(F)c1,2,-6,1.4
COc1ccccc1-c1ccc2c(c1)O[C@H](CN(C)CC1CC1)[C@H](C)CN([C@H](C)CO)S2(=O)=O,2,1,-0.3
COc1ccc2c3c([nH]c2c1)[C@H](CO)N(Cc1ccccc1F)CC31CCN(C(=O)C2CCCC2)CC1,-2,-12,3.4
C[C@H](CO)N1C[C@H](C)[C@@H](CN(C)C(=O)C2CC2)Oc2cc(-c3ccccc3)ccc2S1(=O)=O,-3,-9,-2.2
Cc1noc(C)c1S(=O)(=O)N(C)C[C@H]1Oc2ccc(NC(=O)c3ccncc3)cc2C(=O)N([C@H](C)CO)C[C@@H]1C,7,8,-0.3
Cc1ccc(S(=O)(=O)N2CC3C(=O)C[C@@H](c4ccccc4)N(S(=O)(=O)c4ccc(CCCOCCOCCNC(=O)OC(C)(C)C)cc4)C3CC2c2ccccc2)cc1 (some centres not stated),-1,-2,-4.2
C[C@H]1CN(C)C(=O)Cc2cc(N)ccc2O[C@@H]1CN(C)S(C)(=O)=O,5,8,-0.4
C[C@@H]1CN([C@H](C)CO)C(=O)c2cc(NS(=O)(=O)c3ccc(F)cc3)ccc2O[C@@H]1CN(C)S(C)(=O)=O,3,5,-0.7
C[C@@H]1CCCCO[C@@H](CN(C)S(=O)(=O)c2cn(C)cn2)[C@@H](C)CN([C@@H](C)CO)C(=O)c2cc(NC(=O)Cc3ccccc3)ccc2O1,3,-1,-2.0
CO[C@H]1CN(C)C(=O)c2cc(NC(C)=O)ccc2OC[C@H](C)N(Cc2cccnc2)C[C@@H]1C,3,9,-2.5

# Grouped by structure, the compounds so far containing a Cl atom.
SMILES,rRNA inh HTS,rRNA inh HTS OD600,rRNA inh HTS RFP
CCCCNC(=O)c1nc(C2CCN(S(=O)(=O)c3ccc(Cl)cc3)CC2)oc1-c1ccccc1,16,12,3.6
COC(=O)C[C@H]1CC[C@H]2[C@H](COc3ccc(NC(=O)Nc4ccc(Cl)cc4)cc3C(=O)N2C)O1,-3,-15,3.5

# Next part:
SMILES,rRNA inh HTS,rRNA inh HTS OD600,rRNA inh HTS RFP
COc1ccc(S(=O)(=O)N(C)C[C@@H]2Oc3ccc(NS(=O)(=O)c4ccccc4)cc3C(=O)N([C@@H](C)CO)C[C@@H]2C)cc1,-2,-7,6.0
CCOC(=O)C1=CCC(c2ccccc2)N(S(=O)(=O)c2ccc(C)cc2)[C@H]1CC (some centres not stated),2,-5,-1.5
C[C@H]1CCCCO[C@H](CN(C)S(=O)(=O)c2ccc(F)cc2)[C@@H](C)CN([C@@H](C)CO)C(=O)c2cc(NC(=O)CCC(F)(F)F)ccc2O1,3,-1,-1.6
C[C@@H]1CN([C@H](C)CO)C(=O)CCCn2cc(nn2)CO[C@@H]1CN(C)C(=O)Cc1ccccc1,1,1,-1.4
COc1ccc(S(=O)(=O)N(C)C[C@H]2Oc3ccc(NS(=O)(=O)c4ccccc4)cc3C(=O)N([C@@H](C)CO)C[C@@H]2C)cc1,0,-2,-1.1
C[C@@H]1CN([C@H](C)CO)C(=O)c2cccc(NS(C)(=O)=O)c2O[C@H]1CN(C)S(=O)(=O)c1ccc(F)cc1,0,-5,-1.3
Cc1ccc(S(=O)(=O)Nc2ccc3c(c2)C(=O)N([C@H](C)CO)C[C@@H](C)[C@@H](CN(C)C(=O)c2ccncc2)OCCCC[C@H](C)O3)cc1,-2,0,0.0
CC(C)C#Cc1ccc2c(c1)O[C@H](CN(C)Cc1ccncc1)[C@@H](C)CN([C@@H](C)CO)S2(=O)=O,-25,-47,31
C[C@H]1CN([C@@H](C)CO)C(=O)c2cc(NC(=O)Nc3ccccc3)ccc2O[C@H]1CN(C)Cc1ccc(Cl)c(Cl)c1,0,-7,4.5
CC(=O)N(C)C[C@@H]1Oc2cc(C#CC3CC3)ccc2S(=O)(=O)N([C@@H](C)CO)C[C@H]1C,0,7,3.0
C[C@@H]1CCCCO[C@H](CN(C)C)[C@H](C)CN([C@@H](C)CO)C(=O)c2cc(NC(=O)C3CCCCC3)ccc2O1,2,10,-1.1
COCC(=O)N1CCC2(CC1)CN(S(C)(=O)=O)[C@@H](CO)c1c2c2ccc(OC)cc2n1C,-1,-2,-5.0
Cc1ccccc1C(=O)N[C@H](C(=O)N1CCC[C@H]1C(=O)NCCc1ccccc1Cl)C1CCCCC1,4,-5,-3.0
CC(=O)N(C)C[C@H]1Oc2c(NS(C)(=O)=O)cccc2C(=O)N(C)C[C@H]1C,0,-2,0.4
COCCNC(=O)C[C@H]1C[C@H]2c3cc(NC(=O)Nc4ccc(F)cc4)ccc3O[C@H]2[C@H](CO)O1,-1,1,-3.2
CC[C@H]1C/C=C\C[C@H](c2ccccc2)NC(=O)CCC(=O)N1,2,-6,-2.3
Cc1ccc(S(=O)(=O)Nc2ccc3c(c2)C(=O)N([C@@H](C)CO)C[C@@H](C)[C@H](CN(C)C(=O)Nc2ccc4c(c2)OCO4)O3)cc1,-1,-3,0.3
O=C(c1ccc(F)cc1)N1CC(=O)N2[C@H](CO)[C@@H](c3ccc(C4=CCCC4)cc3)[C@H]2C1,-3,-2,2.1
C/C=C/c1ccc([C@H]2[C@@H](CNC(C)=O)N(Cc3ccccn3)[C@H]2CO)cc1,3,7,-2.0
COc1cccc(S(=O)(=O)N2CC[C@@H]3[C@H]2c2cc(C4=CCCCC4)ccc2N(C)[C@H]3CO)c1,3,16,-7.2
C/C=C/c1ccc([C@H]2[C@@H](CO)N(C(=O)CC)[C@H]2CNC(=O)CC2CC2)cc1,-2,2,-0.9
CCCC(=O)Nc1ccc2c(c1)OC[C@@H](C)N(C(=O)c1ccccc1F)C[C@@H](C)[C@H](OC)CN(C)C2=O,0,-1,-0.1
Cc1ccc(S(=O)(=O)Nc2ccc3c(c2)CC(=O)N([C@@H](C)CO)C[C@H](C)[C@H](CN(C)S(=O)(=O)c2ccc(Cl)cc2)O3)cc1,2,-5,0.5
COc1ccc(NC(=O)C(c2ccnc3ccccc23)n2c(=O)c(-c3ccco3)nc3ccccc32)cc1 (configuration not stated),8,8,2.3
C[C@@H]1CN(C)C(=O)c2ccccc2O[C@@H]1CN(C)S(C)(=O)=O,1,6,-1.2
Cc1cccc(-c2ccc(C3[C@@H]4CNC[C@H]3N4)cc2)c1 (some centres not stated),3,4,-1.8
Cc1cc(N2CCN(C(=O)OC(C)(C)C)C[C@H]2C)ccc1N1CCS(=O)(=O)CC1,9,10,0.0
COc1ccc(S(=O)(=O)N2CCCCN3[C@H](CO)[C@H](c4ccc(C#CC5CC5)cc4)[C@H]3C2)cc1,-58,-73,-10
COC(=O)C[C@@H]1CC[C@@H]2[C@H](COc3ccc(NC(=O)NCc4ccccc4)cc3C(=O)N2C)O1,1,11,0.5
C[C@H](O)[C@@H]1C(=O)N2CCc3c([nH]c4c(-c5ccccc5)cccc34)[C@@H]2C[C@@H]1N(C)C(=O)c1cc(Cl)cc(Cl)c1,14,13,58
CCCN(C)C[C@@H]1Oc2cc(C#CCC3CCCC3)ccc2S(=O)(=O)N([C@H](C)CO)C[C@H]1C,1,2,4.1
CCCC(=O)Nc1ccc2c(c1)C(=O)N(C)[C@@H]1CC[C@@H](CC(=O)N3CCc4ccccc4C3)O[C@@H]1CO2,2,-3,1.3
CCCNC(=O)Nc1ccc2c(c1)C(=O)N(C)C[C@@H](OC)[C@@H](C)CN(C(=O)CC)[C@H](C)CO2,2,1,-3.2
C#CCN1C(=O)[C@]2(OC[C@@H]3Cc4ccccc4[C@@H]3C=C2C)c2ccccc21,-16,-19,-11
O=C1CC2c3cc(Br)ccc3CCN2C(=O)CN1Cc1ccccc1 (configuration not stated),3,1,2.3
COc1ccc(-c2ccc3c(c2)[C@@H]2[C@@H](CCN2S(=O)(=O)c2ccccc2C)[C@H](CO)N3C)cc1,3,11,3.4
Cc1ccc(S(=O)(=O)N(C)C[C@H]2Oc3ccc(NS(=O)(=O)c4cn(C)cn4)cc3CC(=O)N([C@H](C)CO)C[C@@H]2C)cc1,2,5,-2.2
CCC(=O)N1[C@H](CN(C)C(=O)CN2CCOCC2)[C@@H](c2ccccc2)[C@@H]1CO,5,4,-0.5
CNC(=O)C[C@H]1CC[C@@H]2[C@H](COc3ccc(NC(=O)NCc4ccccc4)cc3C(=O)N2C)O1,1,-3,0.1
CO[C@@H]1CN(C)C(=O)c2cc(NC(=O)C3CC3)ccc2OC[C@@H](C)N(C(=O)NC(C)C)C[C@@H]1C,3,2,-0.8
CO[C@@H](C(=O)N(C)C[C@H]1OCc2ccccc2-c2ccccc2C(=O)N([C@@H](C)CO)C[C@H]1C)c1ccccc1,-1,3,0.0
C[C@@H]1CCCCO[C@H](CN(C)Cc2ccc(C(F)(F)F)cc2)[C@H](C)CN([C@@H](C)CO)C(=O)c2cc(NC(=O)C3CCCCC3)ccc2O1,-2,-2,-0.8
COc1ccc(-c2cnc3c(c2)C(=O)N([C@@H](C)CO)C[C@H](C)[C@@H](CN(C)C(=O)C2CC2)O3)cc1,-1,-8,-0.6
N#Cc1cccc(-c2ccc3c(c2)[C@H]2[C@H](CCN2Cc2cncnc2)[C@@H](CO)N3)c1,2,10,3.9
C[C@@H]1CN([C@@H](C)CO)C(=O)c2cccc(NC(=O)c3cnccn3)c2O[C@H]1CN(C)S(=O)(=O)c1ccc(Cl)cc1,0,8,0.8
O=C(c1ccncc1)N1CC[C@@H]2[C@H](CO)Nc3ccc(Br)cc3[C@@H]21,4,12,-1.5
Cc1noc(C)c1S(=O)(=O)N(C)C[C@H]1Oc2ccc(NS(C)(=O)=O)cc2C(=O)N([C@H](C)CO)C[C@@H]1C,5,2,-2.0
C[C@H]1CC(=O)N[C@H](c2ccccc2)C/C=C\C[C@@H](c2ccccc2)NC1=O,-2,5,-1.2
C[C@H](CO)N1C[C@H](C)[C@@H](CN(C)C(=O)[C@H]2CCCN2C)OCc2ccccc2-c2ccccc2C1=O,0,0,1.4
CCCNC(=O)C[C@@H]1C[C@@H]2c3cc(NC(=O)c4ccc5c(c4)OCO5)ccc3O[C@@H]2[C@@H](CO)O1,-2,0,-0.1
CCCNC(=O)C[C@H]1CC[C@H]2[C@@H](COc3ccc(NC(=O)c4ccc(OC)cc4)cc3C(=O)N2C)O1,0,4,1.6
CC(C)C(=O)Nc1ccc2c(c1)C(=O)N(C)[C@H]1CC[C@@H](CC(=O)NCCc3ccccc3)O[C@@H]1CO2,-1,-3,-0.4
OC[C@H]1[C@@H](c2ccccc2)C2(CN(Cc3ccccc3F)C2)N1Cc1ccccc1F,-57,-83,-17
CCCNC(=O)Nc1ccc2c(c1)OC[C@@H](C)N(C(=O)C1CCOCC1)C[C@@H](C)[C@@H](OC)CN(C)C2=O,4,3,-1.3
CC(=O)Nc1ccc2c(c1)C(=O)N(C)[C@@H]1CC[C@@H](CC(=O)NCC3CCCCC3)O[C@@H]1CO2,0,8,0.6
O=C(C[C@H]1CC[C@@H]2[C@H](COC[C@H](O)CN2S(=O)(=O)c2cccc(F)c2)O1)NCc1ccncn1,i,nt,nt

# Entries shown so far that have two or more sulfur atoms, in the order listed:
SMILES,rRNA inh HTS,rRNA inh HTS OD600,rRNA inh HTS RFP
C[C@@H]1CCCCO[C@H](CN(C)Cc2ccc3c(c2)OCO3)[C@@H](C)CN([C@@H](C)CO)C(=O)c2cc(NS(=O)(=O)c3cccs3)ccc2O1,5,-3,3.2
Cc1ccc(S(=O)(=O)N2CC3C(=O)C[C@@H](c4ccccc4)N(S(=O)(=O)c4ccc(CCCOCCOCCNC(=O)OC(C)(C)C)cc4)C3CC2c2ccccc2)cc1 (some centres not stated),-1,-2,-4.2
C[C@@H]1CN([C@H](C)CO)C(=O)c2cc(NS(=O)(=O)c3ccc(F)cc3)ccc2O[C@@H]1CN(C)S(C)(=O)=O,3,5,-0.7
COc1ccc(S(=O)(=O)N(C)C[C@@H]2Oc3ccc(NS(=O)(=O)c4ccccc4)cc3C(=O)N([C@@H](C)CO)C[C@@H]2C)cc1,-2,-7,6.0
COc1ccc(S(=O)(=O)N(C)C[C@H]2Oc3ccc(NS(=O)(=O)c4ccccc4)cc3C(=O)N([C@@H](C)CO)C[C@@H]2C)cc1,0,-2,-1.1
C[C@@H]1CN([C@H](C)CO)C(=O)c2cccc(NS(C)(=O)=O)c2O[C@H]1CN(C)S(=O)(=O)c1ccc(F)cc1,0,-5,-1.3
Cc1ccc(S(=O)(=O)Nc2ccc3c(c2)CC(=O)N([C@@H](C)CO)C[C@H](C)[C@H](CN(C)S(=O)(=O)c2ccc(Cl)cc2)O3)cc1,2,-5,0.5
Cc1ccc(S(=O)(=O)N(C)C[C@H]2Oc3ccc(NS(=O)(=O)c4cn(C)cn4)cc3CC(=O)N([C@H](C)CO)C[C@@H]2C)cc1,2,5,-2.2
Cc1noc(C)c1S(=O)(=O)N(C)C[C@H]1Oc2ccc(NS(C)(=O)=O)cc2C(=O)N([C@H](C)CO)C[C@@H]1C,5,2,-2.0
